From PubChem BioAssay
GIV-Gai inh: inhibitors of GIV peptide binding to Galpha-i3, primary screen, biochemical, fluorescence polarization, FITC-GIV GBA peptide, rat Galphai3 | Guanine nucleotide-binding protein G(i) subunit alpha-3 (Rattus norvegicus), P08753 | 90 min; stronger effect = lower value; scaled: aluminum fluoride 0%, vehicle 100% | percent of control (FP), % (test concentration not listed) | 210,000 tested, 0.42% active | AID 1224905, 2016;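 active = replicate mean at 85% of control or lower, very high polarization wells dropped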;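 also: wells of about 15 µL received 100 nL stock; the first replicate is given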
Target sequence (P08753 whole entry, looked up): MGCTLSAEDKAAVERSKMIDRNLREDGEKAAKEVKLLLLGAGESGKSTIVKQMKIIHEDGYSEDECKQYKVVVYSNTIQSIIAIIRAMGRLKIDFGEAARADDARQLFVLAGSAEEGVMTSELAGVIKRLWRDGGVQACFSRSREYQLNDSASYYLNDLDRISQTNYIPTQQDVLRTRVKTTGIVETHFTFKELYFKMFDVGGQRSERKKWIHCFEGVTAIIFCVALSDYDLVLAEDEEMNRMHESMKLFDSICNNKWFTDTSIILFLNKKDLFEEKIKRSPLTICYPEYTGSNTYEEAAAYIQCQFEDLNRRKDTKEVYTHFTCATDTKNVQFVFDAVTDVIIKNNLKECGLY
The depositor's hits bear a star. The list is partial; the hit share may differ from the screen's.

SMILES | GIV-Gai inh
CCOC(=O)CSc1nc2ccccc2n1C(=O)OCC | 124
Cc1nn(-c2nc3ccccc3[nH]2)c2c1C(c1ccc(F)cc1F)CC(=O)N2 (centres undefined) | 99
COc1ccc(NC(=O)CSC2=C(C#N)C(c3ccc(C(C)C)cc3)CC(=O)N2)cc1 (centres undefined) | 100
O=C(Cn1cnc2onc(-c3cccc(F)c3)c2c1=O)NCc1ccc2c(c1)OCO2 | 105
Cc1cccc(OCC(=O)N2CCCC(C)(C(=O)NCc3ccccc3C)C2)c1 (centres undefined) | 101
Cc1cc(-c2ccc(C3Nc4ccc5ccccc5c4C4=C3C(=O)CC(C)(C)C4)o2)c(C)c([N+](=O)[O-])c1 (centres undefined) | 109
COCCNC1=NCCNC12CCN(S(=O)(=O)c1ccc(Cl)cc1)CC2 | 100
Cc1cccc(NC(=O)c2ccc3c(=O)n(CC4CCCO4)c(=S)[nH]c3c2)c1 (centres undefined) | 108
COC(=O)c1ccc2c(=O)n(CCc3ccc(S(N)(=O)=O)cc3)c(SCC(=O)Nc3ccccc3Cl)nc2c1 | 105
CC1(O)N(CCCCCCN2C(=O)OC3(CCCCC3)C2(C)O)C(=O)OC12CCCCC2 (centres undefined) | 104
COc1ccc(C2/C(=C(\O)c3ccc(Cl)cc3)C(=O)C(=O)N2c2ccc(Br)cn2)cc1 (centres undefined) | 113
COc1cccc(CN=C2Nc3cc(C)c(C)cc3NC23CCCCC3C)c1 (centres undefined) | 101
O=S(=O)(c1cccc2nonc12)N1CCCCC1 | 103
COc1cc(-c2nc(C=Nc3ccccc3Br)c(O)o2)cc(OC)c1OC | 119
COc1ccc(Cl)cc1NC(=O)C1=C(C)NC(=S)NC1c1ccccc1OC (centres undefined) | 109
Cc1sc2cc(C(=O)NCCN3CCOCC3)[nH]c2c1CN1CCCCC1 | 101
CCN(CC)S(=O)(=O)c1ccc2nc(SC(C)C(=O)N3CCc4ccccc43)cc(C)c2c1 (centres undefined) | 99
O=C(Nc1cccnc1Cl)c1cc2nc(-c3ccc(F)cc3)cc(C(F)(F)F)n2n1 | 114
O=c1/c(=C/c2cccc(Cl)c2)sc2nc(-c3ccccc3)c(-c3ccccc3)n12 | 107
Cc1nc(-c2cc(S(=O)(=O)Nc3cc(F)cc(F)c3)c(C)s2)cs1 | 110
COc1ccc(C(=O)OC2CC(C)=CCC3(C)CCC(O)(C(C)C)C23)cc1O (centres undefined) | 108
O=C1/C(=C2/C(=O)N(Cc3ccccc3)c3ccc(Br)cc32)SC(=S)N1CCS(=O)(=O)O | 107
COc1ccc(N2C(N)=C(C#N)C(c3ccc([N+](=O)[O-])cc3)C3=C2CC(C)(C)CC3=O)cc1 (centres undefined) | 113
COc1ccc(N2CC(c3nnc(NC(=O)CCc4ccccc4)o3)CC2=O)cc1 (centres undefined) | 108
Cn1nc(COCc2ccccc2)c2c1CCN(S(=O)(=O)c1ccc(C3CCCCC3)cc1)C2 | 103

By substructure: those above containing a nitro group on carbon (two)
SMILES | GIV-Gai inh
Cc1cc(-c2ccc(C3Nc4ccc5ccccc5c4C4=C3C(=O)CC(C)(C)C4)o2)c(C)c([N+](=O)[O-])c1 (centres undefined) | 109
COc1ccc(N2C(N)=C(C#N)C(c3ccc([N+](=O)[O-])cc3)C3=C2CC(C)(C)CC3=O)cc1 (centres undefined) | 113

Three compounds out of the list above, arranged by the number in GIV-Gai inh, smallest number first:
SMILES | GIV-Gai inh
Cn1nc(COCc2ccccc2)c2c1CCN(S(=O)(=O)c1ccc(C3CCCCC3)cc1)C2 | 103
O=C(Cn1cnc2onc(-c3cccc(F)c3)c2c1=O)NCc1ccc2c(c1)OCO2 | 105
COc1ccc(C2/C(=C(\O)c3ccc(Cl)cc3)C(=O)C(=O)N2c2ccc(Br)cn2)cc1 (centres undefined) | 113

The results go on.
SMILES | GIV-Gai inh
O=S(=O)(NCc1nc2cccnc2n1C1CCCCC1)c1cccc2nsnc12 | 101
Cc1ccc([N+](=O)[O-])cc1N1C(=O)C2C3c4ccccc4C(c4ccccc43)C2C1=O (centres undefined) | 98
O=C(Nc1ccc(F)cc1)c1nnc(CNC(=O)C2CCC2)s1 | 106
CCn1nnc2c(NCCCn3ccnc3)ncnc21 | 95
CC1(C)CC(=O)C2=C(C1)Nc1c(ccc3ccccc13)C2c1ccc(C(C)(C)C)cc1 (centres undefined) | 112
COc1cccc2cc(C(=O)NCc3ccccc3)c(=Nc3ccc(C(=O)O)cc3)oc12 | 105
Cc1cn(-c2nc(-c3ccccc3)oc2-c2ccccc2)c(=O)nc1N1CCCCC1 | 120
CC(C)CNC(=O)CN1c2ccccc2NC2=C(C(=O)CC(C)(C)C2)C1c1ccccc1 (centres undefined) | 98
CCSc1nc2ccc(NS(=O)(=O)c3ccc4c(c3)OCCO4)cc2s1 | 104
Cc1nnc(NC(=O)CSc2nnc(CNC(=O)c3ccc(S(=O)(=O)N4CCCC4)cc3)n2-c2ccccc2)s1 | 109
CC(C)(C)c1ccc(C(=O)N2c3ccccc3-c3c(ssc3=S)C2(C)C)cc1 | 112
Cc1cc(C2CCCN2C(=O)NC2CCCC2)no1 (centres undefined) | 101
CCOC(=O)C1=NN(c2ccc(Cl)cc2)C(c2c[nH]c3ccccc23)N1c1ccc(C)cc1 (centres undefined) | 111
O=C(CC1CCN(S(=O)(=O)c2ccc(Br)s2)CC1)NC1CC1 | 102
O=C(NCc1ccc2c(c1)OCO2)C1CCN(c2nc3ccccc3o2)CC1 | 104
C=CCN1C(=O)/C(=C/C=C2/C=CN(CC)c3ccccc32)SC1=S | 103
COC(=O)C1C(=O)NC(SCC(=O)Nc2ccc(Cl)c(Cl)c2)=C(C#N)C1c1ccccc1OC (centres undefined) | 115
Cc1cc(C)c2c(c1)CC(C)(C)c1nc3c([N+](=O)[O-])cccc3nc1-2 | 101
COc1ccccc1NC(=O)CSc1nc2ccccc2c(=O)n1CC1COc2ccccc2O1 (centres undefined) | 134
O=c1c(C=Nc2ccc(Cl)c(Cl)c2)c(C(F)(F)F)[nH]n1-c1ccc([N+](=O)[O-])cc1 | 105
CCCOc1ccc(-c2nn3c(=O)c(NC(=O)c4ccc(C)cc4)cnc3o2)cc1 | 105
COc1ccc(OC)c(NC(=O)Nc2c(-c3cccnc3)[nH]c3ccccc23)c1 | 104
CN(C(=O)c1ccc(-c2cc(N3CCCCC3)ncn2)cc1)C1CCCCC1 | 99
Cc1nc(SCC(=O)Nc2nccs2)c2c(=O)n(C)c(=O)n(C)c2n1 | 108
Cc1ccccc1-c1csc(Cc2nc(-c3ccc(Cl)cc3)no2)n1 | 115

Later entries
SMILES | GIV-Gai inh
O=C(NC(=C(Oc1ccccc1)Oc1ccccc1)[P+](c1ccccc1)(c1ccccc1)c1ccccc1)c1ccccc1 | 103
CCC(C)(C)NS(=O)(=O)c1cc(-c2nc(C)cs2)n(C)c1C | 102
CCC(=O)Nc1cccc(-c2noc(C3CCCN(C(=O)c4ccc(F)c(F)c4)C3)n2)c1 (centres undefined) | 103
Cc1nnc(-c2coc(S(=O)(=O)N3CCCCC3C)c2)o1 (centres undefined) | 105
CCCc1cc(C2CCCN2Cc2cn[nH]c2-c2ccc(OC)c(OC)c2)no1 (centres undefined) | 111
CCOc1ccc(S(=O)(=O)N2CCCC(C)(C(=O)NCc3cccc(OC)c3)C2)cc1 (centres undefined) | 111
CN1C(=O)N(C)C2C1NC(=O)N2CCC(=O)O (centres undefined) | 107
COc1ccc(C2CC(=O)Nc3c2cnn3-c2nc3ccccc3s2)cc1OC1CCCC1 (centres undefined) | 104
Cc1csc(-c2cc(S(=O)(=O)NCCCN3CCC(C)CC3)c(C)s2)n1 | 99
COc1ccc(-c2c3c(c(-c4ccccc4)n2-c2ccc(OC)cc2)C(=O)c2ccccc2C3=O)cc1 | 102
COc1cccc(NC(=O)CSc2nc(-c3sc(-c4ccc(Cl)cc4)nc3C)cc(=O)[nH]2)c1 | 109
O=S(=O)(c1cc(-c2nnc(C3CCC3)o2)co1)N1CCOCC1 | 99
CNC1(c2ccc(OC)cc2)Oc2ccccc2C(C#Cc2ccccc2)=C1C (centres undefined) | 110
COc1ccc(CCN2C(=O)/C(=C/c3c(NCc4ccccc4)nc4ccccn4c3=O)SC2=S)cc1OC | 139
O=C(COc1ccccc1)Nc1cccc2c(NC(=O)COc3ccccc3)cccc12 | 107
CC1(C)CC(=O)C2=C(C1)c1c(ccc3ncccc13)NC2c1cccc(O)c1 (centres undefined) | 104
COc1cccc(NS(=O)(=O)c2cc(C(=O)N3CCN(C)CC3)ccc2NCc2ccc(F)cc2)c1 | 116
COc1cccc(N2C(=O)/C(=C/c3cc(OC)c(OC)c(OC)c3)C(=O)NC2=S)c1 | 108
Cc1ccc(N2CC(O)(c3ccc([N+](=O)[O-])cc3)[N+]3=C2SCCC3)cc1 (centres undefined) | 105
COc1ccccc1N(CCOC(=O)c1ccccc1)S(=O)(=O)c1ccc(NC2=NS(=O)(=O)c3ccccc32)cc1 | 116
CCS(=O)(=O)N1CCCN(C2=NS(=O)(=O)C(c3cccc(Cl)c3)=C2C)CC1 | 104
Cn1c(=O)c2nc(S(=O)(=O)CCC(=O)Nc3ccc(F)cc3F)n(C)c2n(C)c1=O | 104
COc1cc(-n2c(C)nc3cc(C(=O)N4CCc5ccccc54)ccc32)cc(OC)c1OC | 101
Cc1ccc(C)c(CSc2nc3cc(C(=O)NC4CCCC4)ccc3c(=O)n2CC2CCCO2)c1 (centres undefined) | 104
CC12c3ccccc3C(c3ccccc31)C1C(=O)N(c3cc([N+](=O)[O-])ccc3Cl)C(=O)C12 (centres undefined) | 106

As entered above.
GIV-Gai inh result of O=C(COc1ccccc1)Nc1cccc2c(NC(=O)COc3ccccc3)cccc12 : 107
GIV-Gai inh result of O=S(=O)(c1cc(-c2nnc(C3CCC3)o2)co1)N1CCOCC1 : 99
GIV-Gai inh result of COc1ccc(-c2c3c(c(-c4ccccc4)n2-c2ccc(OC)cc2)C(=O)c2ccccc2C3=O)cc1 : 102

Four entries from above, field by field.
smiles: Cn1c(=O)c2nc(S(=O)(=O)CCC(=O)Nc3ccc(F)cc3F)n(C)c2n(C)c1=O
  GIV-Gai inh = 104

smiles: COc1ccc(-c2c3c(c(-c4ccccc4)n2-c2ccc(OC)cc2)C(=O)c2ccccc2C3=O)cc1
  GIV-Gai inh = 102

smiles: CNC1(c2ccc(OC)cc2)Oc2ccccc2C(C#Cc2ccccc2)=C1C (centres undefined)
  GIV-Gai inh = 110

smiles: CC1(C)CC(=O)C2=C(C1)c1c(ccc3ncccc13)NC2c1cccc(O)c1 (centres undefined)
  GIV-Gai inh = 104

Continued.
SMILES | GIV-Gai inh
Cc1ccc(C)c(N2CCN(S(=O)(=O)c3cc(-c4cc(C(F)(F)F)on4)sc3C)CC2)c1 | 98
O=C(CSc1nc(N2CCc3ccccc3C2)nc2ccccc12)Nc1ccccc1 | 111
CCC(C)(C)C1CCC2(CC1)NC(=S)N(c1cccc(C)c1C)N2 (centres undefined) | 101
Cc1nc2sccn2c(=O)c1Br | 111
COc1ccccc1N1CCN(C(=O)c2cc3n(n2)C(C(F)(F)F)CC(c2ccc(Cl)cc2)N3)CC1 (centres undefined) | 107
Cc1cc(NC(=O)CSc2nc3c(c(=O)n2-c2ccc(Br)cc2)SCC3)no1 | 108
COc1cccc(NS(=O)(=O)c2cc(C(=O)N3CCN(C)CC3)ccc2NCc2ccccc2Cl)c1 | 110
Cc1nc(N2CCN(c3ccccn3)CC2)c2c(C)c(C(=O)NCc3ccc(F)cc3)sc2n1 | 101
O=C(NCCCN1CCCC1=O)C1CCN(c2cncnc2N2CCCCC2)CC1 | 109
CCCNS(=O)(=O)c1cc2c(cc1C)N(Cc1noc(C3CC3)n1)C(=O)CO2 | 101
Cn1nc(COCc2ccccc2)c2c1CCN(S(=O)(=O)c1ccc3c(c1)CCCC3)C2 | 100
CCOc1ccc(NC(=O)CSC2=C(C#N)C(c3ccccc3OCC)C3=C(CCCC3=O)N2)cc1 (centres undefined) | 112
COc1ccc(-c2csc(Cc3nc(-c4ccc(Br)cc4)no3)n2)cc1OC | 101
CCOc1ccc(-c2noc(-c3nn(-c4ccccc4)ccc3=O)n2)cc1 | 105
Cc1csc(-c2cc(S(=O)(=O)Nc3ccc(Cl)cc3)c(C)s2)n1 | 104
Cc1nc2c(c(N(C)CC(=O)N3CCCC3)n1)CCC2 | 106
O=c1c2nnc(SCc3ccc(F)cc3)n2ccn1-c1ccc(F)cc1 | 108
CC(C)(C)NC(=O)N1CCN(Cc2nc3cccnc3n2-c2ccccc2)CC1 | 109
COc1ccc(C2CC(c3cccs3)=Nc3ccccc3S2)c(OC)c1 (centres undefined) | 112
CC(C)c1nnc(-c2coc(S(=O)(=O)N3CCN(C(C)C)CC3)c2)o1 | 101
CCc1onc(C)c1C1CCCN1Cc1cc(Br)ccc1O (centres undefined) | 107
COc1ccc(/C=C2\CCC/C(=C\c3ccc(OC)cc3OC)C2=O)c(OC)c1 | 105
Cc1nc(CNC(=O)[C@H]2CCCN2C(=O)Nc2ccc(C)c(Cl)c2)cs1 | 106
CCCc1cc(C2CCCN2Cc2ccc(CC)cc2)no1 (centres undefined) | 99
COCCCNC(=O)C1CCN(c2cc(Sc3cc(C)ccc3C)ncn2)CC1 | 99

Continued.
SMILES | GIV-Gai inh
O=C(NCc1cccs1)c1ccc(N2CC3CC(C2)c2cccc(=O)n2C3)c(NC(=O)c2cc3ccccc3oc2=O)c1 (centres undefined) | 108
Clc1ccc(-c2nc3ccccc3nc2-c2ccccc2)cc1 | 106
O=C1C2C(c3cccc(F)c3)OC3(C(=O)c4ccccc4C3=O)C2C(=O)N1c1ccccc1C(F)(F)F (centres undefined) | 114
CCCS(=O)(=O)c1c(S(=O)(=O)CCC)c2cnccn2c1C(=O)c1ccc(Cl)cc1 | 121
Cn1c(SCc2nc(-c3ccccc3)no2)nc2cc3c(cc2c1=O)OCO3 | 104
N#Cc1c(N)nc2sc(C(=O)c3ccc(Cl)cc3)c(N)c2c1-c1ccccc1 | 106
CCCn1ccnc(N2CCC(C)CC2)c1=O | 104
CC1CCN(S(=O)(=O)c2cccn(Cc3ccc(N4CCCC4=O)cc3)c2=O)CC1 | 104
